# Bioassay records (PubChem BioAssay)
# Six1-Eya2 blk: qHTS Assay for Inhibitors of the Six1/Eya2 Interaction; Homeobox protein SIX1 (Homo sapiens) + Protein phosphatase EYA2 (Homo sapiens), …; AlphaScreen GST-Six1/His-Eya2 binding, biochemical; active compounds read low; control for the full effect not named in the record; activity change, % (no concentration beside the values); hit rate 0.56% among 360,000; in the data active = activity change below about -65%; inconclusive = about -30% to -65%; inactive = above about -30%; also: % is scaled to controls: 0 for no effect and ±100 for the full control effect
# Target sequence (O00167 whole entry, looked up): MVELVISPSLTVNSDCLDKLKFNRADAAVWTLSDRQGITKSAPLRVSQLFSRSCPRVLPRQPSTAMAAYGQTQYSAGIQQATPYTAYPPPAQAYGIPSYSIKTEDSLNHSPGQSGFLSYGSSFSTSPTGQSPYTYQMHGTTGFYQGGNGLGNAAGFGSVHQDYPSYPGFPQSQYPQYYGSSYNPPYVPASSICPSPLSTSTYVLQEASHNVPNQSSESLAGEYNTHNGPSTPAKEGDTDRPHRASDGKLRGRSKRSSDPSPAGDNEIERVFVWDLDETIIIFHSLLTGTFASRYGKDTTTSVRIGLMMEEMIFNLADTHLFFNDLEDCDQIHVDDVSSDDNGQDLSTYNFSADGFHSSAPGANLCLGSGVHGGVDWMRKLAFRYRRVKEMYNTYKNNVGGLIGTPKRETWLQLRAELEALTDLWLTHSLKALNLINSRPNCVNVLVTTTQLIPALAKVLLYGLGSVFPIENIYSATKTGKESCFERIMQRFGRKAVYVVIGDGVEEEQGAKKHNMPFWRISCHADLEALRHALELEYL
# Target sequence (Q15475 whole entry, looked up): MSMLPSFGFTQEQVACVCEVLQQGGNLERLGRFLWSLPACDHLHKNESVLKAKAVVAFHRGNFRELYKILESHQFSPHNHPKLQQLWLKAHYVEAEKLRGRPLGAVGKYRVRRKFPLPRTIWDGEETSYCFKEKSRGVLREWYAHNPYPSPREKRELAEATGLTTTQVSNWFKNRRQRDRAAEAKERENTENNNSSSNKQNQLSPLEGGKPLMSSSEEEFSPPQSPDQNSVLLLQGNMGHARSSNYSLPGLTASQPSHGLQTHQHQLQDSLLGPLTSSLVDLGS
#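 Six1/Eya2 binding was read as AlphaScreen signal after compounds were pinned into GST-Six1 plus His-tagged Eya2 (5X stock 250/500 nM) in pH 8.0 Tris/NaCl/TCEP buffer, beads added, then incubated 1 h, 37 C, dark.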
# D2 PAM: Beta-Arrestin HTS for Positive Allosteric Modulators of the Human D2 Dopamine Receptor: Potentiators; D(2) dopamine receptor (Homo sapiens), P14416; DiscoveRx D2 beta-arrestin cells, luminescence, 90 min; 100% = 57 uM dopamine signal; potentiation, % (test concentration not listed); hit rate 0.23% among 360,000; AID 624464, 2012; active = potentiation of 50% or more; inconclusive = 30% to 50%; inactive = 30% or less;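 also: compound concentration not given in the record; tested on top of an EC20 dose of dopamine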
#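 D2 cells co-treated with compound plus 50 nM dopamine (EC20) for 90 min at 37 deg C to detect potentiation. Beta-arrestin recruitment was read as enzyme-fragment luminescence after 1 h at ambient temperature. Full response was set by 57 uM dopamine.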
# PINK1 modulator: A Quantitative High throughput Screen to Identify Chemical Modulators of PINK1 Expression; Potency, µM (doses to about 76.6 µM), for the others: top-dose activation (PINK1 increase), hits mostly activators; AID 624263, 2012; hit rate 0.2% among 410,000; PINK1 immunofluorescence, high-content cytometry, 24 h; active = well fitted activation curve with a large enough effect; inconclusive = small, poorly fitted or top-dose-only effect; inactive = flat fitted curve, though single readings scatter; cell line not stated here;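 also: potency is read from the fitted curve at half-maximal effect; % of control where 0% means no effect; nearly all actives have a fitted effect of over 65% in size; a mitochondrial uncoupler was the plate control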
#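 Stable cell line treated 24 h with compounds at 5 concentrations (CCCP controls), then fixed and immunostained for PINK1 plus nuclear and cell stains; PINK1 immunofluorescence quantified by laser-scanning microplate cytometry.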
# TRPML1 agonist: qHTS for Agonists of the Human Mucolipin Transient Receptor Potential 1 (TRPML1); TRPML1-expressing cells, Ca2+ dye fluorescence, FDSS; host cell line not named in the record; reference of the full effect not given here; activation, % (no concentration beside the values); hit rate 0.12% among 410,000; AID 624414, 2012; in the data active = activation above about 50%; inconclusive = about 30% to 50%; inactive = below about 30%; also: 0% is about no effect; the text of the record puts the active cut at 80%
#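 Tet-induced TRPML1-DL cells, 1,500 per well, cultured overnight, were loaded with a no-wash Ca2+ dye for 45–90 min. Calcium fluorescence was recorded on the FDSS for 110 s after compound addition, before the EC80 agonist (4 uM 54-4) was added.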
# D2 ag: Beta-Arrestin HTS for Positive Allosteric Modulators of the Human D2 Dopamine Receptor: Agonists | D(2) dopamine receptor (Homo sapiens), P14416 | DiscoveRx PathHunter D2 beta-arrestin, luminescence, 90 min; 100% = 57 uM dopamine signal | activation, % (no concentration beside the values) | hit rate 0.084% among 360,000 | AID 624465, 2012; in the data active = activation above about 40%; inconclusive = about 15% to 40%; inactive = below about 15%; also: compound concentration not given in the record; the text of the record calls up to 30% inactive
#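 Agonist mode: compounds alone added to overnight-plated D2 PathHunter cells for 90 min at 37 C, with 57 uM final dopamine (EC100) defining full response. Beta-arrestin recruitment detected by chemiluminescent reagent, read after 1 h at ambient temperature.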
# CtBP-E1A inh: qHTS Assay for Inhibitors of the CtBP/E1A Interaction. CtBP / adenovirus E1A interaction (AlphaScreen). AlphaScreen GST-E1A/His-CtBP binding, 1536-well; active compounds read low; control for the full effect not named in the record. activity change, % (no concentration beside the values). hit rate 0.49% among 340,000. AID 651724, 2012; in the data active means activity change below about -65%; inconclusive means about -30% to -65%; inactive means above about -30%; also: % is scaled to controls: 0 for no effect and ±100 for the full control effect
#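 GST-E1A and His-tagged CtBP (125 nM each as 5X stock) were preincubated with pin-transferred compound for 2 h at 37 °C in the dark, then glutathione donor and nickel acceptor beads were added for 1 h before AlphaScreen reading.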
# Starred values were filed as active, the others as inactive; ? = inconclusive; . = not tested or not shown; & = joins results of further samples; [ ] = dose if it differs, or a comment.
SMILES,Six1-Eya2 blk,D2 PAM,PINK1 modulator,TRPML1 agonist,D2 ag,CtBP-E1A inh
CC(C)COc1ccc(C(=O)Nc2cc(S(=O)(=O)N3CCOCC3)ccc2N2CCCC2)cc1,-4.8,-0.4,0.6%,1.8,6.2,1.8
COc1ccc(C(C)=O)cc1COC(=O)c1c(C)nn(-c2ccccc2)c1C,-2.4,1.6,1.4%,4.1,7.1,1.1
Cc1ccc(CN2Cc3cccc4c3[C@@H](CC2=O)[C@H](O)[C@H](O)C4)cc1,2.6,0.2,0.7%,0.0,-2.4,5.8
O=S(=O)(Nc1ncnc2scc(-c3ccc(F)cc3)c12)c1cc(F)ccc1F,11.8,-11.8,2.6%,0.2,-1.5,.
CC(OC(=O)c1cccs1)C(=O)NCc1ccc2c(c1)OCO2 (configuration not stated),-3.3,-10.9,-2.4%,2.5,-3.1,4.2
O=[N+]([O-])c1ccc2cn[nH]c2c1,-3.3,4.8,-0.8%,-1.1,6.4,5.6
COc1ccc(NC(=O)Nc2c(C)noc2-c2ccccc2)cc1,3.7,-2.2,0.2%,2.7,-0.5,.
CCOC(=O)c1ccc2c(c1)n(CC)c(/C=C/N(C)c1ccccc1)[n+]2CC,0.2,-16.7,19.9%,0.5,-3.9,2.0
COc1cccc(NC(=O)CN(C)C(=O)CCCc2nc3ccccc3c(=O)[nH]2)c1,-0.6,-0.9,1.3%,-0.6,-0.9,0.6
Cc1ccc(NC(=O)CN2C(=O)S/C(=C\c3cc(C)n(-c4ccc(C(=O)O)cc4)c3C)C2=O)cc1,-0.7,-6.4,1.3%,0.2,-0.5,-1.5
CCOC(=O)c1c(C)[nH]c(C(=O)COC(=O)/C=C/c2cccc(OC)c2OC)c1C,1.1,-9.3,8.5%,-0.5,-4.0,-1.3
CCC(=O)Nc1cccc(-c2cc3ccccc3oc2=O)c1,?,-8.0,1.7%,-0.5,0.1,-7.4
COc1ccc2oc(-c3ccccc3)c(C(N)=O)c2c1,11.4,-3.1,-2.0%,0.3,-5.2,18.4
CCOC(=O)[C@H]1[C@H]2COc3ccc(C)cc3[C@@H]2N2C(=O)CN(Cc3ccc(C)cc3)C(=O)[C@@]12C,-2.1,-11.0,1.3%,-0.1,-1.0,-3.2
COc1cc(C(=O)NCc2nnc(SCC(=O)Nc3cc(C)cc(C)c3)o2)cc(OC)c1OC,-3.3,0.7,-0.3%,0.3,-2.3,-1.3

# Random excerpt: 6 compounds from above, in no set order.
SMILES,Six1-Eya2 blk,D2 PAM,PINK1 modulator,TRPML1 agonist,D2 ag,CtBP-E1A inh
CCC(=O)Nc1cccc(-c2cc3ccccc3oc2=O)c1,?,-8.0,1.7%,-0.5,0.1,-7.4
CC(C)COc1ccc(C(=O)Nc2cc(S(=O)(=O)N3CCOCC3)ccc2N2CCCC2)cc1,-4.8,-0.4,0.6%,1.8,6.2,1.8
CCOC(=O)c1c(C)[nH]c(C(=O)COC(=O)/C=C/c2cccc(OC)c2OC)c1C,1.1,-9.3,8.5%,-0.5,-4.0,-1.3
CC(OC(=O)c1cccs1)C(=O)NCc1ccc2c(c1)OCO2 (configuration not stated),-3.3,-10.9,-2.4%,2.5,-3.1,4.2
COc1ccc2oc(-c3ccccc3)c(C(N)=O)c2c1,11.4,-3.1,-2.0%,0.3,-5.2,18.4
Cc1ccc(NC(=O)CN2C(=O)S/C(=C\c3cc(C)n(-c4ccc(C(=O)O)cc4)c3C)C2=O)cc1,-0.7,-6.4,1.3%,0.2,-0.5,-1.5

# Further results follow:
SMILES,Six1-Eya2 blk,D2 PAM,PINK1 modulator,TRPML1 agonist,D2 ag,CtBP-E1A inh
CC(=O)CCn1cc([N+](=O)[O-])nc1C,8.0,-9.4,-1.0%,1.0,-0.7,0.6
Cc1ccc([C@H]2C[C@@H](n3cc(COC(=O)c4ccccc4)nn3)[C@H](O)CN2CC2CCCCC2)cc1,1.3,1.1,6.3%,-0.5,-10.1,-3.6
CCCS(=O)(=O)NC(=O)C1(C)CCCN(C(=O)c2ccco2)C1 (configuration not stated),3.0,-9.0,-0.9%,0.1,2.6,7.1
CCCCNC(=O)CSc1nc(O)c(Cc2ccc(OC)cc2)c(=O)[nH]1,0.0,-5.5,-0.5%,1.0,-2.9,-10.4
CCOc1ccc(N(CC)C(=O)CCS(=O)(=O)c2cccc3nonc23)cc1,-2.7,-8.9,-0.1%,-0.6,-3.3,-16.1
O=C(Nc1ccncc1)c1cc(S(=O)(=O)N2CCCC2)ccc1Cl,3.5,-4.4,-0.5%,0.3,?,.
O=C1OCC=C1NNC(=O)c1cccnc1,9.6,-4.7,0.9%,0.0,-3.7,.
Cc1ccc(S(=O)(=O)n2ccc3cccnc32)cc1,7.1,-8.1,0.7%,0.2,-0.8,5.1
O=C1CNC(=O)N1CC(=O)N1CCCc2ccccc21,0.2,-5.5,-2.2%,-0.9,-2.1,9.5
CC(C)(C)NC(=O)C(c1c[nH]c2ccccc12)N(C(=O)Cn1nnc(-c2ccc(Cl)cc2)n1)c1ccccc1F (configuration not stated),-16.6,-3.0,2.0%,1.8,3.5,-4.9
COc1cccc(CNC(=S)Nc2ccc3c(c2)c(=O)n(C)n3Cc2ccccc2)c1,3.1,-0.6,-0.2%,-0.6,-5.6,-5.3
COc1ccc(CN2CCN(c3ccccn3)CC2)cc1OCc1ccccc1,-15.0,10.0,-3.3%[38.3 µM],1.3,?,-18.2
Cn1ncc(C#N)c1NC(=O)c1nn2cccnc2c1Cl,0.4,-2.3,-0.1%,-0.3,2.7,-7.0
COc1cccc(C(=O)Nc2cccc(C(=O)NCC(C)C)c2)c1,6.1,-2.8,1.6%,-1.3,-5.9,0.1
O=C(OCC(=O)N1CCCC1=O)c1cc(S(=O)(=O)N2CCOCC2)ccc1F,-0.9,20.6,2.7%,0.1,-1.6,-3.0
CN(C)CCCN(C(=O)c1ccc(S(=O)(=O)N(C)C)cc1)c1nc2ccc(F)cc2s1,-1.8,-17.1,1.3%,0.3,-3.6,.
COc1ccccc1OCC(=O)Nc1ccc(S(=O)(=O)NC(C)=O)cc1,-0.2,-12.7,.,0.9,0.5,8.5
COc1ccccc1CN1CC(C(=O)N2CCC(OC)CC2)CCC1=O (configuration not stated),5.6,-7.5,2.7%,-0.1,-4.3,-6.0
COc1cccc(N2C(=NC(=O)c3ccccc3)SC3CS(=O)(=O)CC32)c1 (configuration not stated),-9.7,0.0,9.1%,-0.4,-1.5,0.0
CC1CCC/C(=N\NC(=O)Nc2ccccc2)C1 (configuration not stated),5.0,-8.8,4.7%,-1.2,0.6,0.0
O=C(NCC1CCCO1)c1cccnc1NCc1ccc(F)cc1 (configuration not stated),43.1,-0.8,-0.6%,-0.1,-3.9,-11.6
O=C(C1=C(O)C(=O)N(Cc2ccccc2)C1c1ccncc1)c1ccco1 (configuration not stated),12.6,9.0,2.9%,0.2,0.1,-0.8
CC(C)(C)NC(=O)COC(=O)c1ccccc1OCC(=O)Nc1ccc(Br)cc1,8.6,-0.6,17.2%,2.1,2.7,-1.7
COc1cccc(NC(=O)CN(C)C(=O)c2cccnc2Nc2cccc(C(F)(F)F)c2)c1,-0.6,-2.3,3.0%,0.4,3.9,8.7
CCC(=O)OC1(C#CCOc2ccc(OC)cc2)CCN(C)CC1,-0.4,-9.4,-1.2%,-0.8,-3.5,4.7
C#CCOC(=O)Nc1cnccc1C(F)(F)F,6.3,-3.1,2.6%,1.4,1.2,7.2
COc1ccc(CN2CCC(CO)(CCOc3ccccc3)CC2)c(OC)c1C,3.0,-9.1,1.4%,0.1,-4.7,-1.7
CC(=O)N1CCC2(CC1)C/C(=N\NC(=S)Nc1ccccc1F)c1cc(O)ccc1O2,-12.6,-26.2,-1.1%,-0.2,5.0,-11.6
CC1=C(C(=O)N(C(C)C)C(C)C)CC(CC(=O)NCc2cccs2)C(=O)N1Cc1ccc(C(C)(C)C)cc1 (configuration not stated),6.4,-4.9,20.9%,-0.2,-2.5,0.8
CCN(c1cccc(C)c1)c1ncnc2nc[nH]c12,2.3,-6.6,0.3%,-0.7,-3.1,6.2
CCSc1nc(O)c(C2OC(=O)c3c2ccc(OC)c3OC)c(=O)n1CC (configuration not stated),-1.5,-9.8,6.2%[38.3 µM],0.6,-0.3,5.4
c1coc(CSCc2cn3cccnc3n2)c1,6.3,3.8,24.4%,1.0,-0.7,4.3
C/C(=N\NC(=O)CSCc1ccc([N+](=O)[O-])cc1)c1cccc(Br)c1,-6.2,-0.8,0.4%,-0.7,-0.2,5.9
COc1ccccc1-c1ccc([C@@H]2C[C@H]3[C@H](CON3C)CN2C(=O)c2ccco2)cc1,2.9,1.0,1.2%,-0.2,-3.8,-7.7
COc1ccc(CN(CC(=O)NCc2ccccc2)C(=O)CCC(=O)Nc2cc(C)ccn2)cc1,25.1,-7.5,0.7%,-0.3,0.2,-6.5
CCn1cc(C(=O)Nc2ncccc2O)c(=O)c2cc(F)c(N3CCN(C(=O)c4ccco4)CC3)cc21,-20.1,-3.8,?,0.2,1.6,.
CCS(=O)(=O)N1CCCC(C(=O)NC2CCCCC2C)C1 (configuration not stated),7.7,-3.6,2.2%,2.2,-1.8,-1.7
COc1ccc(CN(C(=O)c2cc(=O)c3cc(C)cc(C)c3o2)C2CCS(=O)(=O)C2)cc1 (configuration not stated),-2.4,1.9,0.2%,0.8,-5.8,.
O=C(O)Cc1c(C(=O)O)nnn1-c1ccc(Cl)cc1Cl,7.4,-1.1,-0.3%,-0.3,-2.4,9.0
O=C(Nn1c(C2CCC2)nc2ccccc2c1=O)c1cccs1,2.1,-4.9,2.4%,-0.3,-0.7,0.0
CCOc1ccccc1NC(=O)N1CCCC1C(=O)Nc1nnc(CC)s1 (configuration not stated),-1.2,-12.5,0.2%,-0.6,1.1,-3.3
O=C(CN1CCN(C(=O)c2c(F)cccc2F)CC1)Nc1ccccc1F,9.1,3.5,0.8%,-0.7,-1.3,-6.5
COCCCNC(=O)c1c[nH]c2ccc(S(=O)(=O)N3CCC4(CC3)OCCO4)cc2c1=O,-3.0,5.1,-0.1%,0.6,1.0,0.3
CCC(=O)Nc1ccc(S(=O)(=O)Nc2cc(C)on2)cc1,-1.1,-2.2,2.2%[38.3 µM],0.4,-1.9,3.1
O=C(CSc1nn(-c2ccc(F)cc2)c(=S)s1)NC(=O)NCc1ccco1,-2.1,-3.9,1.5%[38.3 µM],-0.5,0.2,0.9
Cc1ccc(N2CCN(C(=O)c3nn(C)c4c3CS(=O)(=O)c3ccccc3-4)CC2)c(C)c1,-1.1,-11.4,5.3%&-0.7%,1.3&-0.4,1.8,.
CCc1ccc(CNn2cnnc2SCC(=O)NC(C)(C)C)cc1,4.2,1.7,-4.8%[38.3 µM],0.0,-0.3,1.6
